E coli growth = inhibitors of Escherichia coli growth; OD600 absorbance (no concentration beside the values); AID 1053175; OD600, 23 h; hits give low values; 330,000 tested, 0.21% active;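 active means OD600 absorbance below the run mean of sample wells minus 3.6 SD, in any replicate, cut at about 0.56 in these data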;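 further: stock transfer was 300 nL into about 60 µL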
HNF4A DNA FP = change in binding of human HNF4 alpha to DNA | AID 1224865 | activity change, % at 10 µM | P41235 | HNF4a-FITC DNA binding, fluorescence polarization, 1 h | 360,000 tested, 0.3% active; in the data active means activity change above about 30%, passing the limit was not always enough;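 further: controls were the assay level and a saturating level of protein; the project sought stronger binding though the title names inhibitors; some compounds called inactive have numbers as strong as hits; positive values seem to mean higher polarization but the record does not say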
ALR inh = human ALR oxidase inhibition via reduced H2O2 | inhibition, % (concentration not given with the values) | 290,000 tested, 3.8% active | purified ALR, DTT oxidation, H2O2 HRP-luminol luminescence | AID 485317 | P55789;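 active means mean and each replicate at 75% or more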;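 further: stock transfer was 7.5 nL into about 7.5 µL; 0% = neutral wells and 100% = wells with inactivated enzyme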
Target sequence (P55789 whole entry, looked up): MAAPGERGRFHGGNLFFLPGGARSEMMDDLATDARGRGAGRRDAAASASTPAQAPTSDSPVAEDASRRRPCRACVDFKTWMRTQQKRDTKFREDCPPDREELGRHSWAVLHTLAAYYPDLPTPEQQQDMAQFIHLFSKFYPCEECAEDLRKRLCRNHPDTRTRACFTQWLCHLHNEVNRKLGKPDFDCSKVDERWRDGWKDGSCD
FGF22 binding = shifts melting point of recombinant human FGF22; Q9HCT0; recombinant FGF22 thermal shift, SYPRO orange fluorescence; percent of sucrose octasulfate shift, DMSO zero; calls only at 9.99 µM; 340,000 tested, 1.5% active; AID 651658;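 active means melting point raised past a set limit in the mean and every replicate; three in four hits are not shown here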
Target sequence (Q9HCT0 whole entry, looked up): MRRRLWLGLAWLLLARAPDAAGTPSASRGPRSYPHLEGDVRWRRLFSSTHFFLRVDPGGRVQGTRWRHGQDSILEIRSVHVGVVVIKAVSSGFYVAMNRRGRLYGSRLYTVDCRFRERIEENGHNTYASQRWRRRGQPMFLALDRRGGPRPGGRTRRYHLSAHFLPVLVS
LANA-H2A inh = blocks KSHV LANA binding to histone H2A/H2B | inhibition, % (concentration not given with the values) | 320,000 tested, 0.6% active | AID 2629 | cell-free LANA-H2A/H2B peptide, fluorescence polarization | Q9QR71; in the data active means inhibition mostly above about 10%, no sharp cut-off; inactive means mostly below about 6.7%;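 further: stock transfer was 7.5 nL into about 10 µL; 0% = median of vehicle wells and 100% = median of positive control wells; one replicate is shown; the record names a cut of 25% in any replicate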
UCH37 DUB inh = inhibitors of human deubiquitinating enzyme UCH37; Q9Y5K5; 330,000 tested, 0.33% active; inhibition, % (test concentration not listed); purified proteasome/UCH37, Ub-AMC cleavage fluorescence;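 active means mean of two replicates above 20%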;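 further: 0% = compound-free wells with enzyme and 100% = wells lacking proteasome; stock transfer was 100 nL into about 20 µL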
Target sequence (Q9Y5K5 whole entry, looked up): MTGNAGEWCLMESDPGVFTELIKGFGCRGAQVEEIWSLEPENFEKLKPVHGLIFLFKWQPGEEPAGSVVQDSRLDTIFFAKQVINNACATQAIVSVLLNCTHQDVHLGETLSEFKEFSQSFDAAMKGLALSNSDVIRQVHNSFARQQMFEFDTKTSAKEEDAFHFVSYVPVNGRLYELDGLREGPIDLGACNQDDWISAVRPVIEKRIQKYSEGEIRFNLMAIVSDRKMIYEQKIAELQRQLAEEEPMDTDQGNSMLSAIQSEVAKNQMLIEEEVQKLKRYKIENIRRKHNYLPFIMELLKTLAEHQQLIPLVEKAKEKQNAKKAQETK
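Material: human UCH37 enzyme supplied as purified proteasome complex. Measure: % inhibition of Ub-AMC cleavage fluorescence. Medium: pH 7.4 Tris-HCl (50 mM) with ovalbumin, ATP-MgCl2, DTT. Times: 30 min preincubation with enzyme, 25 min cleavage at room temperature. Detection: AMC fluorescence intensity at 355/460 nm.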
B2AR ag = agonists of human beta-2 adrenergic receptor inducing internalization; P07550; Am2.2-beta2AR cells, FAP receptor internalization, flow cytometry; reference of the scale not given here; response, % (concentration not given with the values); 340,000 tested, 0.43% active;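 active means response above a set limit, near 3 SD of response in nonfluorescent compounds, cut at about 42% in these data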;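 further: stock transfer was 100 nL into about 11 µL; a reference agonist was the positive control; negative values mostly stem from fluorescent compounds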
Numbers without * were called inactive; i = inactive; . = no result given; + = active, no number.

SMILES	E coli growth	HNF4A DNA FP	ALR inh	FGF22 binding	LANA-H2A inh	UCH37 DUB inh	B2AR ag
Cc1c(C(=O)N(C)C)c2ccc(Cl)cc2n1O	0.675	-0.9	98.5*	i	0.3	-0.6	6.9
O=C(Cc1ccc(Cl)cc1)N/N=C1\CCCc2ccccc21	.	4.0	-14.4	.	8.4	.	-7.9
O=C(NCc1ccc(F)cc1)C1CCCN(S(=O)(=O)c2cccnc2)C1 (stereo unspecified)	0.703	0.9	-5.6	.	3.4	0.3	-14.6
COc1cc(OC)cc(C(=O)N2CCN(C3CCN(Cc4ccccc4)CC3)CC2)c1	0.689	3.7	-2.2	.	-0.2	1.2	-3.1
CC1CC(C)CN(C(=O)C(C)N2CCN(S(=O)(=O)c3ccc(Br)s3)CC2)C1 (stereo unspecified)	0.697	-1.3	-7.8	i	-0.9	2.2	-1.6
Cc1ccc(OCc2cc(C(=O)N3CCCCCCC3)no2)cc1C	0.716	-0.6	-1.9	i	6.6	0.9	4.7
O=C(CCc1ccccc1)Nc1sc2c(c1C(=O)O)CCCC2	0.647	-3.1	2.3	i	1.8	6.7	-11.1
O=C(Nc1ccc(F)c(Cl)c1)C1CCCCC1	0.646	2.8	.	i	-3.0	14.2	-1.8
CC(C)NC(=O)Cn1c(SCC(=O)NC2CCCC2)nc2ccccc21	0.68	8.8	-16.6	i	0.5	4.0	1.2
COc1cccc(NC(=O)N2CCCC2)c1	0.716	-1.3	-6.1	i	3.8	5.9	-7.3
CCN(CC)Cc1c(O)c(Cl)cc2c3c(c(=O)oc12)CCCC3	0.751	-6.5	14.1	.	-0.1	-462.6	-15.1
Cn1cccc1/C=N/NC(=O)Cc1ccccc1	.	1.2	7.5	i	3.3	.	-4.1
NC(=O)C1(N2CCCCC2)CCN(C2CC(=O)N(Cc3cccs3)C2=O)CC1 (stereo unspecified)	0.773	-1.0	-0.3	.	-1.5	-0.7	-4.8
S=c1[nH]nc(-c2ccccc2)c2ccccc12	0.638	1.5	-2.5	i	0.0	4.1	-6.5
CCOC(=O)C(CC)n1cnc2c(nnn2-c2ccc(OC)cc2)c1=O (stereo unspecified)	0.719	-0.8	-2.4	.	-0.7	-0.8	7.2
CCOc1ccc2nnnn2n1	0.69	-2.6	1.4	.	-1.0	0.6	-4.2
CC(=O)c1cc(C)ccc1OC(=O)c1cccc2nc(C)oc12	0.743	1.7	0.8	.	0.2	8.1	0.8
Cc1ccc(S(=O)(=O)N2CCN(C(=O)c3nn(C(C)C)c(=O)c4ccccc34)CC2)cc1C	0.79	1.1	.	.	1.5	1.1	0.6
Cc1cccc(C(=O)N2CCCCCC2)c1	0.703	2.4	-3.7	.	1.9	28.1	2.7
CNC(=O)Nc1ccc(C2SCCS2)cc1	0.624	-3.3	-13.4	i	-0.6	-1.4	-6.5
CCCCC(=Nc1ccccc1OC)C1=C(O)CC(c2ccccc2)CC1=O (stereo unspecified)	0.723	-3.2	0.6	i	5.7	4.0	2.1
CN(Cc1ccccc1)C(=O)N[C@@H](Cc1ccccc1)C(=O)O	0.739	-2.3	-1.9	.	-3.7	-1.6	4.2
Cc1cc(NC(=O)Cn2cc([N+](=O)[O-])cn2)no1	0.712	-1.9	1.6	i	1.6	5.3	3.0
COC(=O)c1ccc(C2/C(=C(\O)c3ccc4c(c3)OCCO4)C(=O)C(=O)N2CCCN2CCOCC2)cc1 (stereo unspecified)	0.651	2.8	1.9	i	-4.0	9.0	2.1
CC(C)CC(=O)OC(C)(C)[C@@H]1Cc2c(ccc3ccc(=O)oc23)O1	.	4.0	1.9	i	5.7	-27.4	-6.4
COc1cc2c(cc1OC)C(c1cccc(C)c1)CC(=O)N2 (stereo unspecified)	.	-2.6	-13.6	i	47.4*	.	-4.4
CC(C)(C)NC(=O)Nc1ccc(Br)cc1	0.602	4.6	1.1	i	2.0	1.9	2.7
C=C(C1=CCN(S(=O)(=O)C(C)(C)C)[C@H]1CCO)c1ccccc1	0.694	1.3	.	+	.	0.8	-3.9
Cc1cc(C(=O)N/N=C/c2cccnc2)cs1	.	-0.6	3.3	i	3.1	.	-5.1
CCC(c1nnnn1Cc1cccs1)N1CCN(C(=O)c2ccco2)CC1 (stereo unspecified)	0.679	-0.5	-1.4	i	-2.1	-0.2	-1.2
Cc1[nH]n2c(=O)c3c(nc2c1-c1ccc(Cl)cc1)CCC3	0.716	-1.9	25.8	.	2.7	-0.9	-3.4
CCOC(=O)C1=NN(C(=O)Nc2ccc(OC)cc2)C2C(=O)N(c3cccc(C(F)(F)F)c3)C(=O)C12 (stereo unspecified)	0.749	-3.4	-17.8	.	1.7	4.3	-0.4
CCOc1ncccc1C(=O)Nc1cc(C(F)(F)F)ccc1N1CCOCC1	0.68	1.4	-18.5	i	1.2	-24.0	0.1
O=C(CN1CCN(C(=O)c2ccco2)CC1)Nc1c2c(nc3c1CCC3)CCCC2	0.783	-0.8	.	.	.	1.5	8.0
Cc1ccc(C(C(=O)NCC2CCCO2)N(Cc2ccccc2)C(=O)c2ccc(-c3ccccc3)[nH]2)o1 (stereo unspecified)	0.745	1.6	-23.2	.	0.2	5.6	6.5
Nc1nc(SCc2ccccc2Cl)n[nH]1	0.685	4.1	-6.6	.	-0.7	3.0	1.8
CN(C(=O)CCOc1ccccc1)c1c(N)n(Cc2ccccc2)c(=O)[nH]c1=O	0.669	1.5	.	i	.	3.3	6.9
CCN(CC)CC(O)CNc1ccnc2c(Cl)ccc(Cl)c12 (stereo unspecified)	0.704	0.9	.	.	.	8.4	-16.4
Cc1ccc(C(=O)N/C(=C/c2ccco2)C(=O)NCc2ccco2)cc1	0.679	-5.2	-10.2	i	-10.1	-0.6	0.1
O=S(=O)(NCCCN1CCOCC1)c1ccc2c(c1)OCCO2	0.703	0.0	-14.6	i	-0.5	1.7	3.3

6 records picked at random from those above:
SMILES	E coli growth	HNF4A DNA FP	ALR inh	FGF22 binding	LANA-H2A inh	UCH37 DUB inh	B2AR ag
Cc1[nH]n2c(=O)c3c(nc2c1-c1ccc(Cl)cc1)CCC3	0.716	-1.9	25.8	.	2.7	-0.9	-3.4
CCN(CC)CC(O)CNc1ccnc2c(Cl)ccc(Cl)c12 (stereo unspecified)	0.704	0.9	.	.	.	8.4	-16.4
CCOC(=O)C1=NN(C(=O)Nc2ccc(OC)cc2)C2C(=O)N(c3cccc(C(F)(F)F)c3)C(=O)C12 (stereo unspecified)	0.749	-3.4	-17.8	.	1.7	4.3	-0.4
O=S(=O)(NCCCN1CCOCC1)c1ccc2c(c1)OCCO2	0.703	0.0	-14.6	i	-0.5	1.7	3.3
Cc1ccc(C(C(=O)NCC2CCCO2)N(Cc2ccccc2)C(=O)c2ccc(-c3ccccc3)[nH]2)o1 (stereo unspecified)	0.745	1.6	-23.2	.	0.2	5.6	6.5
CN(C(=O)CCOc1ccccc1)c1c(N)n(Cc2ccccc2)c(=O)[nH]c1=O	0.669	1.5	.	i	.	3.3	6.9

More entries:
SMILES	E coli growth	HNF4A DNA FP	ALR inh	FGF22 binding	LANA-H2A inh	UCH37 DUB inh	B2AR ag
C/C(=N\NC(=O)c1n[nH]c2c1CCC2)c1ccco1	.	-0.7	1.9	i	-3.2	.	-6.1
COc1ccc(NC(=O)C2CCN(c3nc(C)cc(C)n3)CC2)cc1	0.71	1.8	1.4	.	-2.1	-3.2	1.4
Cc1cccc(/C=C/c2nc3ccccc3c(=O)n2Cc2ccccc2)c1	.	-0.6	-9.2	.	-8.0	-83.4	11.3
CCOC(=O)N1CCN(C(=O)c2cc(COc3cccc(C(C)=O)c3)on2)CC1	0.683	0.6	-5.3	i	-4.6	0.0	-5.1
NC(=O)Cc1ccc2c(c1)[nH]c1ccccc12	.	2.7	-16.6	i	6.3	.	3.3
C[C@H]1COC(=O)[C@@H](Cc2ccc(F)cc2)CC/C=C/C[C@@H](CC(=O)N(CCO)Cc2ccccc2)C(=O)N1	.	-3.1	-15.8	i	-0.1	1.0	4.5
O=C(Nc1ccc(S(=O)(=O)Nc2ncccn2)cc1)c1ccccc1Cl	0.683	-0.6	.	i	-1.3	4.8	3.2
N#C/C(=C/C1=C(N2CCOCC2)C(=C/c2cccc([N+](=O)[O-])c2)/CC1)C(=O)Nc1ccccc1F	0.765	48.6*	.	i	.	11.6	-32.2
Cc1ccn2cc(-c3ccc4c(c3)NC(=O)CO4)nc2c1	0.69	8.2	8.0	i	6.1	-29.3	3.3
CC(C)C(=O)Nc1ccc(C(=O)NNC(=O)NC2CCCCC2)cc1	0.718	-1.1	12.2	i	2.8	-3.7	-6.4
O=C1NCCN(Cc2cccc(Oc3ccccc3)c2)C1CC(=O)N1CCCO1 (stereo unspecified)	0.684	2.6	-5.8	i	-1.4	-24.4	-10.9
Cc1ccc(S(=O)(=O)N2[C@@H](c3ccc(Cl)cc3)C(C(=O)O)=CC[C@H]2c2ccc(Cl)c(Cl)c2)cc1	.	-5.9	88.5*	i	2.5	0.0	5.6
COC(=O)c1cccc(C(=O)N2CCCC(Nc3ccc4c(c3)OCCO4)C2)c1 (stereo unspecified)	0.696	-1.9	93.9*	i	-3.2	1.6	-0.7
CC1=C(C(=O)Nc2cccc(C)c2C)C(c2cccs2)NC(=S)N1 (stereo unspecified)	0.695	1.4	2.0	.	0.4	4.3	-7.5
Cc1ccc(-n2ncc3c2ncn2nc(-c4ccco4)nc32)c(C)c1	0.724	-3.2	14.6	.	-0.9	1.9	1.0
CN1c2ccccc2Oc2c(c(=O)n(C)c(=O)n2C)C1c1cccc([N+](=O)[O-])c1 (stereo unspecified)	0.766	2.5	-3.3	.	3.4	3.7	-16.3
Cc1nc(S(=O)(=O)c2cccc(Cl)c2)nc2c1CCC2	0.758	0.9	-9.7	.	-0.5	-1.3	2.1
OC(CSc1ccccc1Cl)CN1CCN(c2ccc(F)cc2)CC1 (stereo unspecified)	0.633	2.1	29.8	.	-2.4	2.6	-6.9
O=C(CCNC(=O)N1CCn2c1nc1ccccc12)NCc1ccc(Cl)cc1	0.653	3.2	58.3	i	0.1	1.1	-7.1
C=CCn1c(CNc2ccccc2)nnc1SCC(=O)N/N=C/c1ccccc1O	.	8.5	40.2	.	-2.3	.	-2.7
O=C(CN(Cc1ccc(F)cc1)C(=O)CCC(=O)Nc1nccs1)NCc1ccccc1	0.697	0.9	-2.9	i	6.8	4.1	-0.2
Cc1ccc(C(=O)NNC(=O)CCCN2C(=O)/C(=C/c3ccccc3Cl)SC2=S)cc1	.	5.2	0.3	.	9.1	0.5	6.5
Cc1ccc(-n2c(CNc3ccc(F)cc3)nnc2SCC(=O)O)cc1	0.669	4.8	30.1	i	0.6	1.7	5.7
CCN1CCN(CCCNC(=O)c2cn(CCOC)c(=O)c3c2c2ccccc2n3C)CC1	0.7	1.1	1.3	i	0.6	-92.6	5.0
Cn1cnnc1SCC(=O)NC1CCCC1	0.699	3.8	-9.4	i	-2.5	-0.6	1.1
O=C(C[n+]1cccc2ccccc21)c1ccc(NC(=O)c2ccccc2)cc1	0.679	7.6	9.8	.	0.3	6.1	-23.8
Nc1cc(-c2ccc(Br)cc2)nn1S(=O)(=O)c1cccc2nsnc12	0.697	3.0	1.2	i	-3.8	4.0	-6.6
CC(=O)NC(Cc1ccc(F)c(F)c1)C(=O)NC1CCN(C(=O)c2ccc(Cl)cc2)CC1 (stereo unspecified)	0.65	-0.3	3.8	i	-4.3	1.7	4.4
COc1ccc(-n2c(=O)[nH]cc(C(=O)N3CCCc4ccccc43)c2=O)cc1	0.692	2.0	-1.2	.	-2.3	4.5	1.4
Cc1cc(C)c(NC(=O)COc2cccnc2[N+](=O)[O-])c(C)c1	0.691	4.1	-14.9	i	0.4	4.5	-5.2
COc1ccc2c(c1)CC(N1CCN(C)CC1)c1cc(OC)ccc1S2 (stereo unspecified)	0.592	-1.1	.	i	2.6	1.7	27.9
CN1C(=O)N2CN(C3CCCCC3)CN3C(=O)N(C)C1C23 (stereo unspecified)	0.708	3.4	0.0	i	1.9	-0.5	-5.4
O=C1CC(c2cccc(Cl)c2)C(n2cncn2)C(=O)C1C1NCCc2ccccc21 (stereo unspecified)	0.748	-0.4	-5.9	.	-1.6	3.9	-5.2

These rows are one share of the data, so the mix of outcomes need not match the whole.
